Compound activity as filed in PubChem.
Ecoli rRNA inh: selective bacterial rRNA inhibition in E. coli. E. coli WT GFP vs humanized-ribosome RFP mutants, fluorescence, 24 h; hits give low values; DMSO median 0, no signal -100. GFP signal change (wild-type ribosome), % (test concentration not listed). 1.6% of 350,000 active. AID 720706;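 active = significant combined selectivity score with lowered wild-type GFP, culture density cut under 30%, mutant RFP and density less affected; inactive = any of these conditions unmet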; note: one replicate is shown; some compounds called inactive have numbers as strong as hits
Ecoli rRNA inh OD600: second read-out of Ecoli rRNA inh, no call of its own (marks repeat the call); OD600 change, %; measured here: OD600 growth;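 optical density of the mix in the first replicate; 0 = DMSO median and -100 = no signal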
Ecoli rRNA inh RFP: also measured in Ecoli rRNA inh; calls as there; RFP signal change, %; measured here: RFP humanized mutant strains;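 first replicate; 0 = DMSO median and -100 = no signal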
* marks the source's active call; other numbers are inactive results; i = inactive; . = no result given. These rows are one share of the data; rates above refer to the full screens.

SMILES	Ecoli rRNA inh	Ecoli rRNA inh OD600	Ecoli rRNA inh RFP
CC(=O)N(C)C[C@H]1Oc2ncccc2C(=O)N(C)C[C@H]1C	2	3	-0.9
C[C@@H]1ON(C)[C@H]2C[C@H]3c4[nH]c5c(-c6ccccc6)cccc5c4CCN3C(=O)[C@@H]12	-26	-43	-4.9
C[C@H](CO)N1C[C@H](C)[C@@H](CN(C)C(=O)Nc2ccc(F)cc2)OCCCC[C@H](C)Oc2ccc(NS(=O)(=O)c3ccc(F)cc3)cc2C1=O	-3	3	4.2
COc1ccc(NC(=O)N(C)C[C@@H]2Oc3ccc(NS(=O)(=O)c4cccs4)cc3CC(=O)N([C@H](C)CO)C[C@H]2C)cc1	5	12	-1.3
CS(=O)(=O)N1C2CN(CC(F)(F)F)CC1C2c1ccc(Br)cc1 (configuration not stated)	-10	-16	7.4
COC(=O)C[C@H]1CC[C@@H]2[C@@H](COc3ccc(NC(=O)c4cccs4)cc3C(=O)N2C)O1	-9	-9	0.3
CCOC1=C2CN(S(=O)(=O)c3ccc(C)cc3)C(c3ccc(C)cc3)CC2N(S(=O)(=O)c2ccc(C)cc2)C(c2ccccc2)C1 (configuration not stated)	13	12	-1.0
C[C@@H]1CC=CCCNC(=O)[C@@H](C)N(C)C(=O)c2ccccc2O1 (mixture of isomers)	4	11	-1.3
COc1ccc2c3c(n(C)c2c1)[C@H](CO)N(Cc1ccccc1F)CC31CN(C(=O)C2CCC2)C1	-4	-20	-3.5
C[C@@H]1CN([C@H](C)CO)C(=O)c2cc(NC(=O)c3ccncc3)ccc2O[C@@H](C)CCCCO[C@H]1CN(C)C(=O)c1ccccc1	-2	0	-0.7
CNC[C@H]1Oc2ccc(NS(=O)(=O)c3ccc(C)cc3)cc2CC(=O)N([C@@H](C)CO)C[C@H]1C	3	-2	-0.2
O=C(Nc1ccccc1)Nc1ccc2c(c1)[C@@H]1C[C@@H](CC(=O)N3CCOCC3)O[C@H](CO)[C@@H]1O2	3	2	2.1
CO[C@@H]1CN(C)C(=O)c2ccc(NC(=O)NC(C)C)cc2OC[C@H](C)N(Cc2cncnc2)C[C@H]1C	1	4	-3.9
Cc1noc(C)c1NC(=O)N(C)C[C@H]1OCCCC[C@@H](C)Oc2ccc(N(C)C)cc2C(=O)N([C@H](C)CO)C[C@H]1C	1	5	-1.1
COc1ccc(S(=O)(=O)Nc2ccc3c(c2)CC(=O)N([C@H](C)CO)C[C@@H](C)[C@H](CN(C)C(=O)Nc2ccc(F)cc2)O3)cc1	-1	-5	-1.3
O=C(C[C@@H]1CC[C@@H]2[C@H](COC[C@H](O)CN2C(=O)c2ccc(F)cc2)O1)N1CCCCC1	i	.	.
COc1cccc(NC(=O)C[C@H]2CC[C@H]3[C@H](COc4ccc(NC(=O)C5CCCC5)cc4C(=O)N3C)O2)c1	-1	2	1.6
C[C@@H]1CN([C@H](C)CO)C(=O)Cc2cc(NS(=O)(=O)c3ccc(F)cc3)ccc2O[C@@H]1CN(C)S(=O)(=O)c1ccc(Cl)cc1	0	-8	5.9
C[C@H]1CC(=O)N[C@@H](c2ccccc2)C/C=C\C[C@H](c2ccccc2)NC1=O	7	8	-2.8
C[C@@H]1CN([C@@H](C)CO)C(=O)c2cc(NS(=O)(=O)c3ccc(F)cc3)ccc2O[C@H]1CN(C)S(C)(=O)=O	4	5	0.3
COc1cccc(NC(=O)N2CC[C@@H]3[C@@H](CO)N(C)c4ccc(-c5cccc(F)c5)cc4[C@@H]32)c1	0	8	-0.3
CO[C@H]1CN(C)C(=O)c2cc(NC(C)=O)ccc2OC[C@@H](C)N(Cc2cccc(F)c2)C[C@H]1C	0	-4	-1.2
CN(C)C(=O)c1ccc(-c2ccc3c(c2)[C@H]2[C@H](CCN2C(=O)c2ccccn2)[C@H](CO)N3)cc1	5	14	-1.4
COCC(=O)Nc1ccc2c(c1)C(=O)N(C)C[C@@H](OC)[C@H](C)CN[C@@H](C)CO2	2	10	-3.8
C[C@H](NC(=O)C[C@@H]1CC[C@@H]2[C@H](COC[C@@H](O)CN2C(=O)Nc2cccc(Cl)c2)O1)c1ccccc1	-57	-76	-17

Arranged by SMILES length (ascending): part of the list above
SMILES	Ecoli rRNA inh	Ecoli rRNA inh OD600	Ecoli rRNA inh RFP
COc1ccc2c3c(n(C)c2c1)[C@H](CO)N(Cc1ccccc1F)CC31CN(C(=O)C2CCC2)C1	-4	-20	-3.5
COC(=O)C[C@H]1CC[C@@H]2[C@@H](COc3ccc(NC(=O)c4cccs4)cc3C(=O)N2C)O1	-9	-9	0.3
O=C(C[C@@H]1CC[C@@H]2[C@H](COC[C@H](O)CN2C(=O)c2ccc(F)cc2)O1)N1CCCCC1	i	.	.
CO[C@@H]1CN(C)C(=O)c2ccc(NC(=O)NC(C)C)cc2OC[C@H](C)N(Cc2cncnc2)C[C@H]1C	1	4	-3.9

Later entries.
SMILES	Ecoli rRNA inh	Ecoli rRNA inh OD600	Ecoli rRNA inh RFP
C[C@H]1CN([C@@H](C)CO)C(=O)Cc2cc(NC(=O)Nc3ccc4c(c3)OCO4)ccc2O[C@@H]1CN(C)S(=O)(=O)c1cccs1	1	-6	-2.6
CS(=O)(=O)N1C[C@@H]2C(c3ccc(Br)cc3)[C@H](C1)N2CC(F)(F)F (some centres not stated)	3	5	0.9
CC(C)[C@@H]1COCc2cnnn2CCC[C@H](C)C(=O)N1	2	8	1.5
C[C@@H]1CN([C@@H](C)CO)C(=O)Cc2cc(NC(=O)CCCCCC(=O)Nc3ccccc3N)ccc2O[C@@H]1CN(C)S(=O)(=O)c1cccs1	0	1	2.1
C[C@H]1CN(C)C(=O)Cc2cc([N+](=O)[O-])ccc2O[C@H]1CN(C)C(=O)OC(C)(C)C	-1	-1	-2.0
CCCC#Cc1cnc2c(c1)C(=O)N([C@H](C)CO)C[C@H](C)[C@H](CN(C)Cc1ccc3c(c1)OCO3)O2	2	-5	8.4
C[C@@H]1CN([C@H](C)CO)C(=O)Cc2cc(NS(=O)(=O)c3ccccc3)ccc2O[C@H]1CN(C)C(=O)Nc1ccc2c(c1)OCO2	5	11	0.3
CNC(=O)C[C@H]1CC[C@@H]2[C@@H](COc3ccc(NC(=O)c4cscn4)cc3C(=O)N2C)O1	0	0	-0.6
COc1ccccc1CNC(=O)C[C@@H]1C[C@@H]2c3cc(NC(=O)Nc4ccc(C(F)(F)F)cc4)ccc3O[C@@H]2[C@@H](CO)O1	-4	5	-3.1
CC(=O)N(C)C[C@H]1Oc2cc(C#CC3CC3)ccc2S(=O)(=O)N([C@@H](C)CO)C[C@@H]1C	-2	-10	0.1
CCC(=O)N1CC2(C1)CN(Cc1cc(F)ccc1F)[C@@H](CO)c1c2c2ccc(OC)cc2n1C	-5	-2	2.0
COc1ccc2c3c(n(C)c2c1)[C@H](CO)N(Cc1ccccc1F)CC31CCN(C(=O)C2CCC2)CC1	-1	-22	-1.4
O=C(Nc1ccc(F)cc1)N1CCCCN2[C@H](C1)[C@@H](c1ccc(C#CC3CC3)cc1)[C@@H]2CO	-58	-68	-9.3
CCCNC(=O)N1CC2(CN(S(=O)(=O)c3cccc(OC)c3)C2)c2c(n(C)c3cc(OC)ccc23)[C@@H]1CO	-4	-9	9.9
C[C@@H]1CN([C@@H](C)CO)C(=O)c2cc(NS(=O)(=O)c3ccc(F)cc3)ccc2O[C@@H](C)CCCCO[C@@H]1CN(C)C(=O)Nc1ccccc1	-5	0	-0.7
CN(C)C(=O)c1cccc(-c2ccc(C3[C@@H]4CN(S(=O)(=O)c5cccc(Cl)c5)C[C@H]3N4)cc2)c1 (some centres not stated)	5	16	-3.1
COC(=O)N1C[C@H](OCCCOCc2ccccc2)[C@H]2C[C@@H]1c1ccccc1O2	-19	-14	-2.3
CCCC(=O)Nc1ccc2c(c1)C(=O)N(C)C[C@H](OC)[C@H](C)CN(C(=O)CC)[C@@H](C)CO2	0	-1	-0.8
CN1C(=O)c2cc(NC(=O)c3cccs3)ccc2OC[C@H]2O[C@H](CC(=O)NCC3CC3)CC[C@@H]21	-3	-1	-1.5
COc1ccc(C#Cc2ccc3c(c2)[C@@H]2[C@@H](CCN2S(=O)(=O)c2ccccc2F)[C@@H](CO)N3C)cc1	7	17	-2.7
CCCNC(=O)N1CCC2(CC1)CN(C(C)=O)[C@@H](CO)c1c2c2ccc(OC)cc2n1C	-3	2	-0.2
O=C(C[C@@H]1C[C@@H]2c3cc(NC(=O)NC4CCCC4)ccc3O[C@@H]2[C@H](CO)O1)NCc1ccccc1	-1	3	-1.2
Cc1ccccc1S(=O)(=O)N1CC[C@@H]2[C@H]1c1cc(Br)ccc1N(C)[C@H]2CO	-47	-68	-7.6
C[C@@H]1CN([C@H](C)CO)C(=O)c2cc(C#Cc3cccc(F)c3)cnc2O[C@@H]1CN(C)CC1CC1	5	7	-0.3
O=C(Nc1ccccc1)N1CC(=O)N2[C@H](CO)[C@@H](c3ccc(-c4ccc(F)cc4)cc3)[C@@H]2C1	-36	-65	1.7

Retrieved by structure from above (4):
SMILES	Ecoli rRNA inh	Ecoli rRNA inh OD600	Ecoli rRNA inh RFP
CS(=O)(=O)N1C[C@@H]2C(c3ccc(Br)cc3)[C@H](C1)N2CC(F)(F)F (some centres not stated)	3	5	0.9
CCCC(=O)Nc1ccc2c(c1)C(=O)N(C)C[C@H](OC)[C@H](C)CN(C(=O)CC)[C@@H](C)CO2	0	-1	-0.8
CN1C(=O)c2cc(NC(=O)c3cccs3)ccc2OC[C@H]2O[C@H](CC(=O)NCC3CC3)CC[C@@H]21	-3	-1	-1.5
C[C@@H]1CN([C@H](C)CO)C(=O)Cc2cc(NS(=O)(=O)c3ccccc3)ccc2O[C@H]1CN(C)C(=O)Nc1ccc2c(c1)OCO2	5	11	0.3

(list continues)
SMILES	Ecoli rRNA inh	Ecoli rRNA inh OD600	Ecoli rRNA inh RFP
COCC(=O)N1C[C@@H](C)[C@@H](OC)CN(C)C(=O)c2ccc(NC(=O)Nc3cccc(F)c3)cc2OC[C@H]1C	-5	4	1.8
CCCC(=O)Nc1ccc2c(c1)C(=O)N(C)[C@H]1CC[C@H](CC(=O)N3CCc4ccccc4C3)O[C@H]1CO2	2	-1	2.6
CC(=O)N1C[C@@H](CO)[C@@H](N(C)C(=O)/C=C/c2ccccc2)C[C@H]1c1ccccc1	14	10	4.6
CN(C)C(=O)c1cccc(-c2ccc3c(c2)[C@@H]2[C@@H](CCN2C(=O)c2cccnc2)[C@H](CO)N3)c1	1	13	-5.7
CC(C)C#Cc1ccc([C@@H]2[C@H]3CN(C(=O)Cc4cccnc4)CC(=O)N3[C@H]2CO)cc1	-4	-7	3.9
COc1ccc(NC(=O)Nc2ccc3c(c2)CC(=O)N([C@@H](C)CO)C[C@H](C)[C@H](CN(C)Cc2ccc(C(F)(F)F)cc2)O3)cc1	-1	-2	-0.4
CC(C)CC#Cc1ccc([C@@H]2[C@@H](CO)N3C(=O)CN(C(=O)c4ccc5c(c4)OCO5)C[C@H]23)cc1	2	-41	23
CCCN(C)C[C@H]1Oc2cc(C#CCC3CCCC3)ccc2S(=O)(=O)N([C@@H](C)CO)C[C@@H]1C	1	1	2.4
COc1ccc(CN(C)C[C@H]2OCCCC[C@H](C)Oc3ccc(NS(=O)(=O)c4ccc(OC)cc4)cc3C(=O)N([C@@H](C)CO)C[C@@H]2C)cc1	1	-1	1.8
CN1CC2C(c3ccc(Br)cc3)C(C1)N2S(C)(=O)=O (configuration not stated)	-1	-5	0.9
CC(C)C[C@H](NC(=O)c1ccco1)C(=O)N1CCC[C@H]1C(=O)NCc1ccccc1	14	23	1.6
C[C@@H]1CCCCO[C@@H](CN(C)Cc2ccc(C(F)(F)F)cc2)[C@H](C)CN([C@@H](C)CO)C(=O)c2cc(NC(=O)Nc3ccc(C(F)(F)F)cc3)ccc2O1	-3	3	-3.6
CS(=O)(=O)Nc1ccc2c(c1)[C@@H]1C[C@H](CC(=O)NCc3ccc(-c4ccccc4)cc3)O[C@@H](CO)[C@@H]1O2	-4	-13	9.7
CNC(=O)C[C@H]1CC[C@H]2[C@@H](COc3ccc(NC(=O)NC(C)C)cc3C(=O)N2C)O1	0	-6	-2.7
COC(=O)C[C@@H]1CC[C@@H]2[C@H](COc3ccc(NC(=O)c4ccccc4OC)cc3C(=O)N2C)O1	2	4	1.1
Cc1[nH]nc2c1C(c1ccc(F)cc1)N(c1ccccc1)C2=O (configuration not stated)	1	4	4.8
CC(C)(C)NC(=O)C(c1ccc(C(F)(F)F)cc1)n1c(=O)c(-c2ccco2)nc2ccccc21 (configuration not stated)	8	2	-0.2
C[C@H](CO)N1C[C@H](C)[C@H](CN(C)C(=O)C2CCCCC2)Oc2cc(-c3ccncc3)ccc2S1(=O)=O	-12	-22	0.0
C[C@@H]1CCCCO[C@H](CN(C)C)[C@@H](C)CN([C@@H](C)CO)C(=O)c2cc(NC(=O)NC3CCCCC3)ccc2O1	2	3	-0.3
CCNC(=O)C[C@@H]1CC[C@@H]2[C@H](COC[C@@H](O)CN2C(=O)c2cc(Cl)cc(Cl)c2)O1	-1	5	-1.7
CCS(=O)(=O)N1CC2(CN(Cc3ccccc3OC)[C@@H](CO)c3c2c2ccc(OC)cc2n3C)C1	-3	-14	-0.8
CN(C)C(=O)c1ccc(-c2ccc3c(c2)[C@H]2[C@H](CCN2C(=O)c2ccccn2)[C@H](CO)N3C)cc1	-9	-7	-3.7
C[C@@H]1CN(C)C(=O)Cc2cc(N)ccc2O[C@@H]1CN(C)C(=O)OC(C)(C)C	2	2	-1.2
Nc1nc2c(ncn2[C@@H]2O[C@H](C(=O)N[C@@H](Cc3ccccc3)C(=O)NCc3ccc4c(c3)OCO4)[C@@H](O)[C@H]2O)c(=O)[nH]1	16	2	0.3
